# Assay outcomes from PubChem BioAssay.
# Cruzain noTriton = blocks cruzain activity in detergent-free assay; purified cruzain, Z-FR-AMC fluorescence, no detergent; Potency, µM, inactives show max response, negative = inhibition, most hits filed as inhibitors; actives 2.3% (n = 200,000); AID 1476; P25779; active means well fitted curve in the direction sought with a large enough effect; inconclusive means small, poorly fitted or top-dose-only effect, or another doubt; inactive means no such curve, though single readings can be large; an effect the other way counts as inactive or inconclusive;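 further: plate controls were enzyme without inhibitor for no effect and buffer without enzyme for full effect; nearly all actives have a fitted effect of over 40% in size; top concentration of the series not given in the record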
# Target sequence (P25779 123-467 limits assumed): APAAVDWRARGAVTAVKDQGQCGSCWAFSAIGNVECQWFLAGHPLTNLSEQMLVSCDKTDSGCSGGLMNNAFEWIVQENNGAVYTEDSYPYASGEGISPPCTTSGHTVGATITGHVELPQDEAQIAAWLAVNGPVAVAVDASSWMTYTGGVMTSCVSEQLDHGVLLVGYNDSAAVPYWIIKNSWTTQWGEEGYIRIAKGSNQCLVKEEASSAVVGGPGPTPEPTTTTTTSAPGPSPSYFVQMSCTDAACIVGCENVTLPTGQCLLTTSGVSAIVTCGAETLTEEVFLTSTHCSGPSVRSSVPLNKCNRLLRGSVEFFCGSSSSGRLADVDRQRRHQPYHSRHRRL
#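 Detergent-free condition (0.00005% Triton X-100) in acetate buffer pH 5.5 with DTT. 1.5 nM enzyme and compound were pre-mixed 15 min, then 2 uM Z-FR-AMC substrate added; reaction progress from fluorescence change between first and third reads (60 s).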
# NS1 function inh = blocks influenza NS1 protein function; S. cerevisiae slowed by influenza A NS1, growth recovery by OD600; Potency, µM (doses to about 46.1 µM), for the others: at the top dose activity, positive = more growth; actives 0.4% (n = 270,000); further: actives are rising curves; nearly all actives have a fitted effect of over 50% in size
#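 Read-out: OD600 growth recovery of NS1-expressing budding yeast. Cells grown overnight at 30C in -URA glucose medium, washed, resuspended and diluted 1:100 in 2% galactose assay medium, pH 6.0. Same strain lacking NS1 served as positive control.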
# SARS PLP yeast = blocks SARS-CoV papain-like protease in a yeast assay; S. cerevisiae expressing SARS-CoV PLpro, growth rescue; control for the full effect not named in the record; Potency, µM (top dose mostly 32.9 µM), for the others: top-dose activity, positive = growth rescue; actives 0.19% (n = 330,000); AID 485353; further: 0% is about no effect; nearly all actives have a fitted effect of over 55% in size; growth read by luminescence after 48 h
# RE007 growth inh = less growth of the S. pombe RE007 Vpr strain. actives 0.21% (n = 360,000). Potency, µM (series often up to 92.2 µM), for inactives: top-dose activity change, negative = less growth. S. pombe RE007 Vpr strain, BacTiter-Glo ATP luminescence, 24 h; control for the full effect not named in the record. AID 651644; active = well fitted falling curve with a large enough effect; inconclusive = small, poorly fitted or top-dose-only effect; inactive = no such curve, though single readings can be large or run the other way;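 further: on the % scale 0 is the no-effect control and ±100 the full control effect; nearly all actives have a fitted effect of over 50% in size; the assay follows cell death caused by Vpr and the record does not say whether a fall means rescue or toxicity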
#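 Fission yeast strain RE007, carrying one chromosomally integrated HIV-1 vpr copy, was seeded at OD 0.01 in PMG+AL medium with 23 nL pinned compound. After 24 h at 30 °C and 99% humidity, viability was read by BacTiter-Glo luminescence.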
# Lassa entry inh = inhibitors of Lassa virus binding or cell entry; Lassa virus pseudotype entry inhibition, cell reporter; control for the full effect not named in the record; actives 1.2% (n = 300,000); Potency, µM (top dose mostly 37.9 µM), without a hit: at the highest dose activity change, negative = inhibition, actives largely listed as inhibitors; active means well fitted inhibition curve with a large enough effect; inconclusive means small, poorly fitted or top-dose-only effect, or effect the other way; inactive means flat fitted curve, though single readings scatter; tested in HEK293 cells; further: on the % scale 0 is the no-effect control and ±100 the full control effect; nearly all actives have a fitted effect of over 50% in size; luciferase read-out
# StopGo reporter = lowers the luciferase signal of an FMDV 2A StopGo reporter | human cells with a luciferase reporter of 2A StopGo recoding; control for the full effect not named in the record | Potency, µM (titrated, usually from 57.9 µM), for inactives: at the top dose signal change, negative = less light | actives 1.2% (n = 410,000); active = well fitted falling curve with a large enough effect; inconclusive = small, poorly fitted or top-dose-only effect; inactive = no such curve, though single readings can be large or run the other way; tested in HEK293T cells; further: on the % scale 0 is the no-effect control and ±100 the full control effect; nearly all actives have a fitted effect of over 45% in size; luciferase light after 4 h
# Cruzain Triton = blocks cruzain activity in presence of Triton detergent. P25779. purified cruzain, Z-FR-AMC fluorescence, 0.01% Triton. Potency, µM, inactives show max response, negative = inhibition, usual class: inhibitors. actives 0.43% (n = 200,000). AID 1478; active means well fitted curve in the direction sought with a large enough effect; inconclusive means small, poorly fitted or top-dose-only effect, or another doubt; inactive means no such curve, though single readings can be large; an effect the other way counts as inactive or inconclusive;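 further: plate controls were neutral wells for no effect and buffer without enzyme for full effect; nearly all actives have a fitted effect of over 40% in size; top concentration of the series not given in the record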
#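 Cysteine protease activity tested under reducing, mildly acidic conditions (100 mM sodium acetate pH 5.5, 5 mM DTT) plus 0.01% Triton X-100. Cruzain 1.5 nM; substrate Z-FR-AMC 2 uM; 15 min compound preincubation at room temperature.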
# Marburg entry inh = blocks Marburg virus binding to or entry into cells; Marburg virus pseudotyped entry inhibition, cell reporter; control for the full effect not named in the record; about a third of the inactives were read at about 46 µM; Potency, µM (doses to about 37.8 µM), for inactives: at the highest dose activity change, negative = inhibition, actives largely listed as inhibitors; actives 1.8% (n = 300,000); AID 540276; active = well fitted inhibition curve with a large enough effect; inconclusive = small, poorly fitted or top-dose-only effect, or effect the other way; inactive = flat fitted curve, though single readings scatter; tested in HEK293 cells; about a fifth of its hits are not listed in these tables; further: on the % scale 0 is the no-effect control and ±100 the full control effect; luciferase read-out
# * hit, by the source's call; ? = inconclusive; . = no result given; [ ] = another dose, or the depositor's remark. Unless noted, the call rests on the fitted dose curve; in most records, active means well fitted rising curve with a large enough effect; inconclusive means small, poorly fitted or top-dose-only effect; inactive means no such curve, though single readings can be large or run the other way. Potency means the concentration at half of the fitted maximal effect.
molecule	Cruzain Triton	Marburg entry inh	RE007 growth inh	Lassa entry inh	StopGo reporter	SARS PLP yeast	Cruzain noTriton	NS1 function inh
COc1cc(CN2CCCC(C(=O)c3ccc(SC)cc3)C2)cc(Cl)c1O (stereo unspecified)	.	.	-14%	.	-20%	-1%	.	-8%
Nc1nc2sc3c(c2c(=O)s1)CCCC3	-11%	5%	15%	9%	.	-35%	-1%	-43%
CCN(CC)c1ccc(/C=N/OCC(=O)Nc2cccc(C)c2)cc1	-9.6%	5%	-9%	2%	-19%	-1%	-1%	-13%
CCC(Sc1nnc2c3ccccc3n(CC)c2n1)C(=O)Nc1sc2c(c1C#N)CCCC2 (stereo unspecified)	-1.3%	?	-13%	?	4%	-4%	?	8%
O=C(COC(=O)Cc1ccc([N+](=O)[O-])cc1)NCc1ccc2c(c1)OCO2	.	-2%	7%	-3%	-16%	1%	.	.
COc1cc2c(cc1NC(=O)c1cccc(F)c1)CCCC2	-7.8%	20%	.	-2%	-7%	-49%	-16%	-21%
CN(Cc1ccon1)C(=O)c1ccc2nc(Cc3cccc(Cl)c3)oc2c1	.	1%[46.1 µM]	4%	-14%[46.1 µM]	13%	2%	.	-8%
CCCCSCCCNC(=O)CCCN1C(=O)c2ccccc2Sc2ncccc21	.	?	2%	?	?	-1%	.	-4%
COCCCNC(=O)CS(=O)Cc1nc(-c2cccc(OC)c2)oc1C (stereo unspecified)	8.2%	-11%	0%[3.69 µM]	5%	6%	3%	20%	3%
Cc1cccc(C)c1NS(=O)(=O)c1c(C)[nH]c(=O)[nH]c1=O	3.3%	2%	-11%	-10%	-20%	7%	1%	3%
Fc1ccc(-n2ncc3c(NCCCN4CCOCC4)ncnc32)cc1	0.4%	.	.	22%[46.1 µM]	41%[activator]	.	0%	.
Cc1c(Cl)cccc1NC(=S)N(CCN(C)C)C(C)c1ccccn1 (stereo unspecified)	.	?	-3%	-20%	-7%	-3%	.	.
CCc1c(C(=O)Nc2ccc(OC)c(Cl)c2)[nH]c(C)c1C(C)=O	-5.7%	?	-10%	-20%	32%[activator]	1%	-5%	-18%
COc1ccc(C(=O)n2cc(C(=O)c3cc(C)ccc3O)cn2)cc1OC	-0.1%	-7%	?	11%	?	-30%	8%	-55%
O=C(NC1CC1)C1CCN(C(=O)c2ccc(Cl)cc2Cl)CC1	.	-9%[46.1 µM]	-1%	24%[46.1 µM]	0%	1%	.	-2%
CCC(=O)Nn1c(C2CCC2)nc2ccccc2c1=O	.	15%[46.1 µM]	9%	3%[46.1 µM]	1%	11%	.	15%
O=C(CSc1n[nH]c(-c2ccccc2Cl)n1)NC1CCCCC1	.	?	39%	?	-6%	1%	.	6%
CCCn1cnc2c(SCc3ccccn3)nc(N)nc21	.	9%[46.1 µM]	7%	11%[46.1 µM]	22%	.	.	.
CCOC(=O)c1nn(-c2ccccc2)c(-c2ccccc2)c1C(=O)c1ccccc1	-5.0%	?	1%	?	-16%	-5%	-6%	-36%
Cc1cc(C)n(C(=O)c2cc(F)c(F)cc2C)n1	.	13%	4%	-1%	-2%	0%	.	3%

# Next part:
molecule	Cruzain Triton	Marburg entry inh	RE007 growth inh	Lassa entry inh	StopGo reporter	SARS PLP yeast	Cruzain noTriton	NS1 function inh
COc1cc(CCc2ccc3c(c2)OCO3)oc(=O)c1	.	.	16%	.	14%	-1%	.	4%
O=C(CCCC(=O)N1CCN(c2ccccc2F)CC1)N1CCN(c2ccccc2F)CC1	0.1%	-3%	-1%	?	14%	-9%	?	1%
CC1CCC(NC(=O)c2cccn2C)CC1 (stereo unspecified)	.	-29%	?	-27%	-14%	.	.	.
Cc1nn(-c2ccccc2)c(Cl)c1C(=O)NCC(C)c1ccccc1 (stereo unspecified)	.	?	1%	?	9%	-4%	.	-20%
COc1ccc(N(C(=O)Cc2cccs2)C(C(=O)NC2CCCC2)c2ccncc2)cc1 (stereo unspecified)	.	-17%[46.1 µM]	-5%	.	64%[activator]	1%	.	-1%
COc1cc(/C=C2\SC(=O)N(CCNC(=O)c3cnc(C)cn3)C2=O)cc(OC)c1OC	-2.7%	-20%	5%	4%	-24%	?	?	-1%
O=C(Cc1noc2ccccc12)NNC(=S)Nc1ccccc1	.	?	6%	2%	1%	0%	.	4%
O=C(NCC1CCCO1)c1ccccc1-c1nc(-c2ccccc2F)no1 (stereo unspecified)	.	.	4%	.	1%	?	.	-2%
COc1ccc(C2NC(=O)NC3=C2CCc2ccccc23)cc1 (stereo unspecified)	-13%	?	15%	-24%	-5%	2%	7%	-6%
Cc1ccc(NC(=O)/C=C2\NC(=O)CS2)cc1	.	10%[46.1 µM]	-8%	10%	44%[activator]	3%	.	1%
CCCCn1c(=O)n(CC(=O)Nc2ccc(OC)c(Cl)c2)c(=O)c2c1nc(CO)n2CCC	-8.8%	-11%	13%	?	-17%	1%	?	-19%
CCOC(=O)N1CCN(C2=CC(=O)OC23CCCCC3)CC1	3.9%	-1%	-10%	-1%	.	0%	-3%	7%
COc1ccc(CCN2C(=O)c3[nH]nc(-c4ccccc4O)c3C2c2ccc(OC)cc2)cc1 (stereo unspecified)	-9.1%	-8%[46.1 µM]	.	?	-20%	.	?	.
CC(=O)Nc1ccc(S(=O)(=O)NCCc2cc3c(C)ccc(C)c3[nH]c2=O)cc1	-3.2%	.	0%	.	-21%	2%	-11%	-97%
CC(=O)CSc1nc(CCc2ccccc2)c(C#N)c(=O)[nH]1	.	2%[46.1 µM]	0%	-9%[46.1 µM]	-6%	.	.	.
Cc1ccsc1/C=N/NC(=O)c1ccc2ccccc2c1	.	?	-3%	0%[46.1 µM]	0%	-5%	.	-19%
Cc1ccc2nc(SCC(=O)NC3CC3)[nH]c2c1	.	.	4%	.	24%	9%	.	10%
COCCC(=O)N1CCC(Oc2ccc(C(=O)N3CCCCCC3)cc2)CC1	.	.	-5%	.	8%	-3%	.	-17%
CCN(CC)S(=O)(=O)c1ccc2c(c1)nc(SCC(=O)NCC1CCCO1)n2CC (stereo unspecified)	.	20%	21%	?	-11%	-3%	.	.
CN(C)c1ccc(CNc2nc(-c3ccccc3)nn2S(C)(=O)=O)cc1	.	?	-22%	-17%	32%[activator]	-1%	.	8%

# Further structures.
molecule	Cruzain Triton	Marburg entry inh	RE007 growth inh	Lassa entry inh	StopGo reporter	SARS PLP yeast	Cruzain noTriton	NS1 function inh
CC1CCN(C(=O)CN(c2ccc3c(c2)OCO3)S(C)(=O)=O)CC1	-1.7%	13%	3%	-4%	.	2%	-6%	?
O=C(Nc1nc2ccccc2s1)c1ccc2c(c1)OCO2	-2.1%	?	-4%	2.5µM*	-75%	-18%	-6%	13%
COc1ccc2c(c1)CCc1cnc(N)nc1-2	.	?	3%	1%	29%	0%	.	-1%
CC(=O)N(C(C)=O)c1ncn(C)c1S(=O)(=O)Nc1ccccc1	.	14%	6%	4%	-20%	.	.	.
Clc1ccc(C(c2nnnn2CCc2ccccc2)N2CCSCC2)cc1 (stereo unspecified)	-6.7%	?	-8%	-29%	11%	-2%	1%	-18%
CCOc1cc(/C=C2/NC(=O)N(CC(=O)OC)C2=O)ccc1O	.	1%[46.1 µM]	2%	-25%	-5%	0%	.	.
Oc1ccc(N=Nc2cccc(C(F)(F)F)c2)cc1C=Nc1ccc(N2CCOCC2)cc1	-7.6%	2%	2%	-16%	-5%	0%	18%	11%
CNS(=O)(=O)c1cccc(C(=O)NCC2CCCCC2)c1	.	.	-3%	.	22%	2%	.	2%
Cc1ccsc1/C=N/NC(=S)NCCc1ccccc1	.	-3%	-16%	6%	-2%	-7%	.	.
CCCC12CN3CC(C)(CN(C1)C3c1ccc(CC)cc1)C2=O (stereo unspecified)	1.8%	16%[46.1 µM]	.	0%[46.1 µM]	-2%	.	-2%	.
Cc1ccc(NC2=NCC(=O)N2C2CCCC2)c(C)c1	-0.5%	0%	-8%	10%	-22%	23%	-6%	9%
COc1ccccc1C(=O)N=C1NC(=O)CC2C(=O)NCCN12 (stereo unspecified)	.	-6%	-14%	9%	-8%	0%	.	7%
COc1ccccc1OCC(=O)N1CCCCCCC1	.	21%[46.1 µM]	3%	?	24%	1%	.	7%
COc1cccc(N2CCN(S(=O)(=O)c3ccc(CN4C(=O)c5cccnc5C4=O)cc3)CC2)c1	.	.	4%	.	-18%	0%	.	12%
O=C(Nc1ccc(S(=O)(=O)Nc2ncccn2)cc1)c1ccc(Cl)c([N+](=O)[O-])c1	.	1%	2%	-62%	-24%	-6%	.	8%
CCOC(=O)c1sc(=S)n(-c2ccc(Cl)cc2)c1SC	3.8%	7%	12%	-4%	-7%	5%	7%	0%
O=C1C2C(C(=O)N1/N=C/c1cc(Br)cc([N+](=O)[O-])c1O)C1C=CC2C12CC2 (stereo unspecified)	-8.1%	9%	?	2%	17%	-29%	8%	-21%
COc1cc2c(cc1OC)C(c1ccccc1)N(C(=O)CCl)CC2 (stereo unspecified)	-0.1%	?	9%	?	7.1µM*	-2%	-9%	-4%
Cc1ccc(-c2cc(C(=O)OCC(=O)N(C)C3CCS(=O)(=O)C3)c3ccccc3n2)c(C)c1 (stereo unspecified)	.	7%	-6%	3%	-23%	-2%	.	.
COc1ccc(-c2nc(CNS(=O)(=O)c3ccc(F)cc3)cs2)cc1	-14%	-20%[46.1 µM]	.	?	?	.	?	.

# The list continues.
molecule	Cruzain Triton	Marburg entry inh	RE007 growth inh	Lassa entry inh	StopGo reporter	SARS PLP yeast	Cruzain noTriton	NS1 function inh
COc1ccc(N=C2SCCCN2C)cc1	0.3%	?	-19%	-5%	-14%	-12%	-9%	3%
Cc1cccc(C(C)C)c1NC(=O)CN1C(=O)NC2(CCc3ccccc32)C1=O (stereo unspecified)	.	-23%	1%	-9%	-3%	0%	.	.
NC(=O)c1ccccc1NC(=O)/C=C/c1ccc(Cl)cc1	-8.0%	?	-6%	66%[14.3 µM]	13%	-5%	-15%	-6%
CCN(c1ccccc1)S(=O)(=O)c1ccc2ccccc2c1	.	-24%	-5%	8%	20%	-6%	.	-7%
